Compound activity as filed in PubChem.
ALR inh: inhibitors of human ALR sulfhydryl oxidase, primary screen, biochemical, H2O2 detection, HRP-luminol luminescence, single point. FAD-linked sulfhydryl oxidase ALR (Homo sapiens), P55789. purified ALR, DTT oxidation. inhibition, % (concentration not given with the values). 290,000 tested, 3.8% active. AID 485317, 2010;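 active = mean and each replicate at 75% or more; inconclusive = only one of the two met; inactive = neither met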;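 also: stock transfer was 7.5 nL into about 7.5 µL; 0% = neutral wells and 100% = wells with inactivated enzyme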
Target sequence (P55789 whole entry, looked up): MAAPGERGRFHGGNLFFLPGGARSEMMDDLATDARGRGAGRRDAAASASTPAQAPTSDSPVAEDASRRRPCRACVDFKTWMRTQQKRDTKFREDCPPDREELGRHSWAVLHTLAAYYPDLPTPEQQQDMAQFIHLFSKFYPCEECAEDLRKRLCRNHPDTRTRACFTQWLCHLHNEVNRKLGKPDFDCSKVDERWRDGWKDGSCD
Vif TR-FRET: inhibitors of Vif binding to APOBEC3G peptide, primary screen, biochemical, TR-FRET, GST-Vif 1-94, biotin-A3G peptide, dose response retest (AID 1117319) | Virion infectivity factor (Human immunodeficiency virus type 1 group M subtype B (isolate … | TR-FRET GST-Vif / biotin-A3G peptide binding; higher % means a stronger effect; test concentration not given here; strong numbers were not always called active | one-dose inhibition, %; IC50 in µM for titrated hits | 260,000 tested, 0.57% active;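 active = above the screen mean plus three standard deviations and confirmed in dose response; inconclusive = results disagree or hit not tested in dose response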;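 also: Vif residues 1-94 fused to GST binding biotinylated APOBEC3G peptide 110-148; 0% = full assay without inhibitor and 100% = GST in place of GST-Vif; retest series ran down from 100 µM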
HNF4A DNA FP: change in binding of human HNF4A to DNA, primary screen, biochemical, fluorescence polarization, FITC-DNA; activity change, % at 10 µM; Hepatocyte nuclear factor 4-alpha (Homo sapiens), P41235; 360,000 tested, 0.3% active; 1 h; AID 1224865, 2016; in the data active = activity change above about 30%, passing the limit was not always enough;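 also: controls were the assay level and a saturating level of protein; the project sought stronger binding though the title names inhibitors; some compounds called inactive have numbers as strong as hits; positive values seem to mean higher polarization but the record does not say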
rRNA inh HTS: reduced GFP signal of wild-type E. coli, primary screen, bacterial rRNA inhibitor project, GFP/RFP fluorescence, OD600, single point | 350,000 tested, 1.6% active | AID 720706, 2013 | E. coli WT GFP vs humanized-ribosome RFP mutants, 24 h; active compounds read low; DMSO median 0, no signal -100 | GFP signal change (wild-type ribosome), % (concentration not given with the values);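 active = significant combined selectivity score with lowered wild-type GFP, culture density cut under 30%, mutant RFP and density less affected; inactive = any of these conditions unmet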; also: one replicate is shown; some compounds called inactive have numbers as strong as hits
MLL AF4-AF9 inh: inhibitors of AF4 peptide binding to AF9, primary screen, biochemical, AlphaScreen, biotin-AF4 peptide, FLAG-AF9, single point | Protein AF-9 (Homo sapiens), P42568 | inhibition, % at 10 µM | 350,000 tested, 0.47% active | AID 651704, 2012;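 active = every replicate reaching a set inhibition limit, whatever the replicate mean, cut at about 25% in these data; inconclusive = mean inhibition reaches that limit but some replicates miss it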;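 also: 0% = plate neutral control median and 100% = total signal loss; the record names both 10 and 1 µM as test concentration; the first replicate is given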
Target sequence (P42568 whole entry, looked up): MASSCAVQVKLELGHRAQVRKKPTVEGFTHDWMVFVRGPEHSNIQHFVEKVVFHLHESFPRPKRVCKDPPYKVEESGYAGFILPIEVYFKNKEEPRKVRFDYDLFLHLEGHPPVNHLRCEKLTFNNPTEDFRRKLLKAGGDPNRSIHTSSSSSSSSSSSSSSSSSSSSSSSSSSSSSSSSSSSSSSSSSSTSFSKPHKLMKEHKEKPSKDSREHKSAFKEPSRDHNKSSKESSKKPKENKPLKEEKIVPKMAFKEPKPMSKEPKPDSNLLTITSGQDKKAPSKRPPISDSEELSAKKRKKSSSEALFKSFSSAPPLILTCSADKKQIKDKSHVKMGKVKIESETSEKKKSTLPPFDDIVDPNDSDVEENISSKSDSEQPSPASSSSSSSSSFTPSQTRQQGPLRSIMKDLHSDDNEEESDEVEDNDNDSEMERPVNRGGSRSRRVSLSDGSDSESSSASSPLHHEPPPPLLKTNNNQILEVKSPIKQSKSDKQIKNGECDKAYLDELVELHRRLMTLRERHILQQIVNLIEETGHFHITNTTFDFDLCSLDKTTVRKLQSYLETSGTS
Ecoli growth: E. coli growth inhibition, primary screen, OD600. 330,000 tested, 0.21% active. OD600 absorbance (concentration not given with the values). Escherichia coli growth, 23 h; active compounds read low;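 active = OD600 absorbance below the run mean of sample wells minus 3.6 SD, in any replicate, cut at about 0.56 in these data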;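 also: stock transfer was 300 nL into about 60 µL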
FGF22 binding: binders of human FGF22 protein, primary screen, FGF22 synaptogenesis inhibitor project, biophysical, thermal shift, single point; recombinant FGF22 thermal shift, SYPRO orange fluorescence; percent of sucrose octasulfate shift, DMSO zero; calls only at 9.99 µM; 340,000 tested, 1.5% active;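 active = melting point raised past a set limit in the mean and every replicate; inconclusive = no clear call; three in four hits are not shown here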
Target sequence (Q9HCT0 whole entry, looked up): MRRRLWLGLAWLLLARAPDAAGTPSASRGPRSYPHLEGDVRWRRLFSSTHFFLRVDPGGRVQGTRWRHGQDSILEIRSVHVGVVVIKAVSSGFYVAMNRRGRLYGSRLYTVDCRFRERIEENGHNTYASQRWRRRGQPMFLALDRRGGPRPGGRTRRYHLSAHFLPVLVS
rRNA inh HTS OD600: also measured in rRNA inh HTS; calls as there; OD600 change, %; measured here: OD600 growth;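 optical density of the mix in the first replicate; 0 = DMSO median and -100 = no signal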
rRNA inh HTS RFP: further read-out of rRNA inh HTS, marked with its call; RFP signal change, %; measured here: RFP humanized mutant strains;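 first replicate; 0 = DMSO median and -100 = no signal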
* marks the source's active call; other numbers are inactive results; i = inactive; ? = inconclusive; / = no result given.

SMILES | ALR inh | Vif TR-FRET | HNF4A DNA FP | rRNA inh HTS | rRNA inh HTS OD600 | rRNA inh HTS RFP | MLL AF4-AF9 inh | Ecoli growth | FGF22 binding
O=C(c1ccccc1)C(C(=O)N1CCCCC1)n1ccccc1=O (centres undefined) | 2 | 1% | 2.2 | 19 | 14 | -0.3 | -0.1 | 0.61 | i
COc1ccc(C(=O)n2c(C)c(CCO)c(=O)n2C)cc1 | 5 | -5% | 0.2 | -1 | 6 | -0.7 | -14 | 0.69 | i
O=C(NCC1CCN(C(=O)C(=O)c2cccs2)CC1)c1ccc2c(c1)OCO2 | / | / | / | 10 | 10 | 1.8 | -2.5 | / | i
Cc1cc(=O)nc2c3ccccc3n(C(C)C(=O)Nc3cc(F)ccc3F)n12 (centres undefined) | -2 | / | -0.8 | -1 | -1 | -2.0 | 1.9 | 0.69 | i
CC(C)C(NC(=O)OC(C)(C)C)C(=O)NC(CCC(=O)OCc1ccccc1)C(N)=O (centres undefined) | / | / | -0.6 | 3 | 4 | -0.2 | -1.7 | 0.65 | i
CCc1nnc(NC(=O)Cc2sc(C)nc2-c2ccc(C)cc2)s1 | -5 | 5% | -1.0 | 5 | 7 | -2.2 | 0.5 | 0.74 | i
O=C(COc1cccc(F)c1)NNC(=O)c1cccc(-n2cccc2)c1 | / | 17% | -12 | 9 | 12 | 6.0 | -26 | 0.66 | i
CCOc1ccc(NC(=O)C2CCN(C(=O)N3CCOc4ccccc43)CC2)cc1 | -30 | / | 4.8 | -3 | 1 | -0.5 | -3.3 | 0.78 | i
CCCNC(=O)c1ccccc1NC(=O)c1ccc(CSc2ccccc2)cc1 | -3 | 72% | 2.6 | / | / | / | / | 0.8 | /
Cc1ccc(-n2c(SCC(=O)NCc3ccco3)nnc2-c2cccnc2)cc1 | -9 | 3% | 1.4 | / | / | / | / | 0.75 | /
COC(=O)c1ccc(NC(=O)N2CCOCC2)cc1 | 28 | 4% | -2.7 | / | / | / | / | 0.69 | /
COc1ccc(NC(=O)Nc2cccc3c2O[C@@H](CN(C)C(=O)NC(C)C)[C@H](C)CN([C@@H](C)CO)C3=O)cc1 | / | / | / | -1 | -2 | -0.4 | -2.8 | / | i
CCOc1ccc(NC(=O)CS(=O)(=O)c2cn(CC)c3ccccc23)cc1 | 6 | ? | 3.8 | -2 | -14 | -8.1 | 1.0 | 0.76 | i
Cc1ccc(C(=O)COC(=O)CCC(=O)NC2CCCCC2)cc1[N+](=O)[O-] | -2 | 4% | -5.2 | 7 | 11 | -0.2 | -2.1 | 0.68 | i
CCC(=O)Nc1ccc(N2CCCCC2)c(C(=O)Nc2ccc(OC)cc2)c1 | -1 | 4% | 0.7 | -13 | -14 | -1.0 | 0.8 | 0.71 | i
CC1Cc2cc(S(=O)(=O)N3CCCCC3C)ccc2N1C(=O)C1CCC1 (centres undefined) | -2 | -5% | -2.4 | -31 | -45 | -5.2 | 1.9 | 0.7 | i
Cc1nn(C)c(=O)n1-c1ccc(OCc2ccccc2)cc1 | -17 | -3% | 1.1 | / | / | / | / | 0.71 | /
CC(=O)N/C(=C\c1ccccc1)C(=O)N1CCOCC1 | 1 | / | 6.4 | 3 | 7 | -0.2 | -9.4 | 0.71 | i
O=C(CC1C(=O)NCCN1Cc1cccc(C(F)(F)F)c1)NC1CCCCCC1 (centres undefined) | 0 | 3% | 7.7 | / | / | / | / | 0.66 | /
O=C(Cc1n[nH]c(=O)c2ccccc12)Nc1cccc(S(=O)(=O)N2CCCC2)c1 | -13 | 6% | -1.4 | -2 | 1 | -5.0 | 4.6 | 0.69 | i
O=C(O)CCn1ccc2cc(S(=O)(=O)N3CCCCCC3)ccc21 | 13 | 1% | 3.6 | 12 | -4 | -4.5 | -0.6 | 0.67 | i
O=C(N/N=C/c1cccnc1)c1ccc2c(c1)OCO2 | -1 | -3% | -3.4 | 9 | -1 | 3.7 | -1.0 | / | i
CCCCCCNC(=O)CCc1nc2cccnc2n1Cc1ccc(OC)cc1 | -15 | -4% | 2.0 | 0 | -18 | 15 | -3.4 | 0.64 | i
O=C(COC(=O)c1cc[n+]([O-])cc1)Nc1ccc(Cl)cc1C(F)(F)F | -2 | -5% | -2.5 | / | / | / | / | 0.65 | /
O=C(c1cnn2c(C(F)F)cc(-c3ccccc3)nc12)N1CCCc2ccccc21 | -8 | -6% | 3.2 | 12 | 5 | -5.0 | 7.6 | 0.72 | i
COc1ccc(-n2nc3c(N4CCC(C(=O)NCc5ccccc5C)CC4)nnc(C)c3c2C)cc1 | -4 | / | 11 | / | / | / | / | 0.64 | /
COc1ccc(N(C(=O)CNC(=O)c2ccco2)C(C(=O)NCC2CCCO2)c2ccccc2)cc1OC (centres undefined) | 0 | 1% | -0.3 | 18 | 4 | 0.0 | 1.1 | 0.69 | i
O=C(Nc1ccc2c(c1)OCO2)c1cc(C2CCCN(C(=O)CCCc3ccccc3)C2)on1 (centres undefined) | / | / | 6.3 | -13 | -14 | 2.5 | -0.1 | / | i
COc1ccc(/C=N/NC(=O)CCCC(=O)NC2CCCCC2)cc1 | 1 | -5% | 3.0 | / | / | / | / | / | /
CCC(=O)N1[C@@H]2Cn3c(ccc(-c4ccccc4)c3=O)[C@H]1[C@@H](C(=O)N1CCN(C)CC1)[C@@H]2CO | / | / | / | 1 | 8 | -0.8 | 3.3 | / | i

Random excerpt: five records from the list
SMILES | ALR inh | Vif TR-FRET | HNF4A DNA FP | rRNA inh HTS | rRNA inh HTS OD600 | rRNA inh HTS RFP | MLL AF4-AF9 inh | Ecoli growth | FGF22 binding
CCCCCCNC(=O)CCc1nc2cccnc2n1Cc1ccc(OC)cc1 | -15 | -4% | 2.0 | 0 | -18 | 15 | -3.4 | 0.64 | i
COc1ccc(/C=N/NC(=O)CCCC(=O)NC2CCCCC2)cc1 | 1 | -5% | 3.0 | / | / | / | / | / | /
O=C(c1cnn2c(C(F)F)cc(-c3ccccc3)nc12)N1CCCc2ccccc21 | -8 | -6% | 3.2 | 12 | 5 | -5.0 | 7.6 | 0.72 | i
COc1ccc(N(C(=O)CNC(=O)c2ccco2)C(C(=O)NCC2CCCO2)c2ccccc2)cc1OC (centres undefined) | 0 | 1% | -0.3 | 18 | 4 | 0.0 | 1.1 | 0.69 | i
O=C(N/N=C/c1cccnc1)c1ccc2c(c1)OCO2 | -1 | -3% | -3.4 | 9 | -1 | 3.7 | -1.0 | / | i

Going on with the list.
SMILES | ALR inh | Vif TR-FRET | HNF4A DNA FP | rRNA inh HTS | rRNA inh HTS OD600 | rRNA inh HTS RFP | MLL AF4-AF9 inh | Ecoli growth | FGF22 binding
N#C[C@@H]1[C@@H](c2ccc(C3=CCCC3)cc2)[C@@H](CO)N1C(=O)NC1CCCC1 | / | / | / | -1 | 6 | 5.2 | -1.1 | / | i
O=C(Nc1cccc2c1N(C(=O)c1ccco1)CCC2)c1ccco1 | -10 | 28% | -0.5 | 13 | 15 | 0.9 | -4.2 | 0.64 | i
O=C(CCn1nc(-c2ccccc2)c2ccccc2c1=O)Nc1cccnc1 | -15 | / | 1.2 | 5 | -3 | -0.4 | -2.4 | 0.67 | /
Nc1sc2c([n+]1CCCS(=O)(=O)[O-])CCCC2 | -6 | 4% | 1.1 | 11 | 12 | 2.2 | -1.9 | 0.67 | i
CCN(CC(=O)Nc1c(F)cccc1F)C(=O)c1ccc(=O)[nH]c1 | -13 | 2% | 3.6 | 3 | 13 | -0.2 | 1.2 | 0.67 | i
CCN(CC)C(=O)c1c(NC(=O)c2ccccc2)sc(C)c1C | 14 | 22% | -3.2 | / | / | / | / | 0.73 | /
O=C(Nc1ccccc1Cl)c1cc(C2CCCN(C(=O)c3ccc4c(c3)CCO4)C2)on1 (centres undefined) | / | / | 1.5 | -10 | -48 | 12 | 3.4 | / | i
O=C(Cc1ccccn1)N[C@H]1C=C[C@@H](CC(=O)N2CCCCC2)O[C@H]1CO | / | / | / | 2 | 1 | -0.6 | -0.7 | / | i
COc1ccccc1CNC(=O)c1ccc(CS(=O)(=O)c2ccccc2OC)o1 | -8 | -4% | 1.0 | / | / | / | / | 0.69 | /
CCc1noc(C)c1C(=O)NNC(=O)c1ccccc1 | / | / | 1.8 | 3 | 3 | -2.5 | -3.1 | 0.71 | i
CCOc1ccc(C(=O)NC(=S)NCc2cccnc2)cc1 | 54 | 5% | 1.0 | / | / | / | / | 0.71 | /
CC12CN(NC(=O)c3ccccc3F)C3(C#N)CC1CCC23C (centres undefined) | -24 | 15% | -0.3 | -14 | -1 | 1.5 | -1.5 | 0.7 | i
Cc1cccc(Nc2ncccc2C(=O)O)c1C | / | -1% | 5.1 | 5 | -12 | -4.1 | -6.3 | 0.67 | i
CCCNC(=O)[C@H]1[C@H](CO)[C@H]2Cn3c(ccc(C4=CCCC4)c3=O)[C@H]2N1CCC(F)(F)F | / | / | / | 3 | -3 | -1.0 | 0.7 | / | i
COCCN1C(=O)C(=O)/C(=C(/O)c2ccc(S(=O)(=O)N3CCOCC3)cc2)C1c1cccc(OC)c1 (centres undefined) | 1 | / | -2.3 | 1 | 2 | -2.8 | -0.2 | 0.66 | i
CNC(=O)[C@H](C)[C@@H]1C[C@@]1(C)[C@@H](NC(=O)OCc1ccccc1)c1ccccc1 | -5 | 1% | -0.9 | -6 | -5 | -0.5 | 1.6 | / | i
COc1cc(-c2nc3ccccc3s2)ccc1O | 68 | -5% | 0.5 | / | / | / | / | 0.63 | /
COC(=O)[C@H]1[C@H](CO)[C@H]2Cn3c(ccc(C4=CCCC4)c3=O)[C@H]2N1C(=O)C1CC1 | / | / | / | 2 | -5 | -0.9 | -2.0 | / | i
CC1(C)N([O-])C2=C(CCCC2)[N+]1=O | / | 4% | -3.2 | 14 | 18 | -2.7 | -3.7 | 0.7 | i
CCCN1C[C@H](C)[C@H](OC)CN(C)C(=O)c2cc(NS(=O)(=O)c3cn(C)cn3)ccc2OC[C@@H]1C | / | / | / | 1 | 3 | -0.7 | -0.6 | / | i
CCc1ccc(NC(=O)CCC(=O)c2ccc(C)cc2)cc1 | 2 | 2% | 1.0 | 1 | 14 | -1.1 | -0.1 | 0.69 | i
C[C@@H]1CN([C@@H](C)CO)C(=O)c2cc(-c3cccc(C#N)c3)cnc2O[C@H]1CN(C)Cc1ccc(F)cc1 | / | / | / | 3 | 5 | -0.3 | 3.2 | / | i
C[C@@H]1CN([C@@H](C)CO)C(=O)c2cc(NC(=O)Nc3ccccc3)ccc2O[C@@H]1CN(C)Cc1ccc(-c2ccccc2)cc1 | / | / | / | -3 | -18 | 8.5 | 0.2 | / | i
C[C@H]1CN([C@@H](C)CO)C(=O)c2cc(NS(=O)(=O)c3cn(C)cn3)ccc2O[C@@H]1CN(C)Cc1ccc(C(F)(F)F)cc1 | / | / | / | 4 | 12 | -2.4 | -15 | / | i

3 entries out of the list above, arranged by their value in rRNA inh HTS, descending.
canonical_smiles | rRNA inh HTS
C[C@H]1CN([C@@H](C)CO)C(=O)c2cc(NS(=O)(=O)c3cn(C)cn3)ccc2O[C@@H]1CN(C)Cc1ccc(C(F)(F)F)cc1 | 4
C[C@@H]1CN([C@@H](C)CO)C(=O)c2cc(-c3cccc(C#N)c3)cnc2O[C@H]1CN(C)Cc1ccc(F)cc1 | 3
C[C@@H]1CN([C@@H](C)CO)C(=O)c2cc(NC(=O)Nc3ccccc3)ccc2O[C@@H]1CN(C)Cc1ccc(-c2ccccc2)cc1 | -3

This is a subset; count on the stated rates, not on these rows.
